Screening results from PubChem.
LASV entry inh – Lassa virus entry inhibition. AID 540256. Potency, µM (series often up to 37.9 µM), for inactives: at the top dose activity change, negative = inhibition, usual class: inhibitors. Lassa virus pseudotype entry inhibition, cell reporter; control for the full effect not named in the record. 1.2% of 300,000 active; active means well fitted inhibition curve with a large enough effect; inconclusive means small, poorly fitted or top-dose-only effect, or effect the other way; inactive means flat fitted curve, though single readings scatter; tested in HEK293 cells; also: % is scaled to controls: 0 for no effect and ±100 for the full control effect; nearly all actives have a fitted effect of over 50% in size; luciferase read-out
StopGo reporter – FMDV 2A StopGo reporter, luciferase signal | 1.2% of 410,000 active | Potency, µM (series often up to 57.9 µM), inactives show at the highest dose signal change, negative = less light | human cells with a luciferase reporter of 2A StopGo recoding; control for the full effect not named in the record; active = well fitted falling curve with a large enough effect; inconclusive = small, poorly fitted or top-dose-only effect; inactive = no such curve, though single readings can be large or run the other way; tested in HEK293T cells; also: % is scaled to controls: 0 for no effect and ±100 for the full control effect; nearly all actives have a fitted effect of over 45% in size; luciferase light after 4 h
Cruzain Triton – inhibitors of Trypanosoma cruzi cruzain with detergent; 0.43% of 200,000 active; purified cruzain, Z-FR-AMC fluorescence, 0.01% Triton; Potency, µM, for inactives: max response, negative = inhibition, usual class: inhibitors; active = well fitted curve in the direction sought with a large enough effect; inconclusive = small, poorly fitted or top-dose-only effect, or another doubt; inactive = no such curve, though single readings can be large; an effect the other way counts as inactive or inconclusive;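 also: plate controls were neutral wells for no effect and buffer without enzyme for full effect; nearly all actives have a fitted effect of over 40% in size; top concentration of the series not given in the record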
Target sequence (P25779 123-467 limits assumed): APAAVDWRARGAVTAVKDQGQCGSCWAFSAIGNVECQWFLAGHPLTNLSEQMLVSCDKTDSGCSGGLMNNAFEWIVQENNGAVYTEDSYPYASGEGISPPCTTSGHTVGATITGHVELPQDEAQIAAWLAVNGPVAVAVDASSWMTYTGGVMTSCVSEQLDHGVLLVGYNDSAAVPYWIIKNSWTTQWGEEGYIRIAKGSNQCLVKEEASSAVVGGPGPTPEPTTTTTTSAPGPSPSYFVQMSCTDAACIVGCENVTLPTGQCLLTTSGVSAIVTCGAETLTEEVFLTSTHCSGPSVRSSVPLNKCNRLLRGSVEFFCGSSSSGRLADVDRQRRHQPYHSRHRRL
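Steps: dispense cruzain (1.5 nM final) in acetate buffer pH 5.5 with DTT and 0.01% Triton X-100; pin-transfer compounds; incubate 15 min RT; add Z-FR-AMC (2 uM final); read fluorescence every 30 s, using the 60 s intensity change.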
NS1 inh – influenza NS1 inhibition | S. cerevisiae slowed by influenza A NS1, growth recovery by OD600 | Potency, µM (doses to about 46.1 µM), for inactives: top-dose activity, positive = more growth | 0.4% of 270,000 active | AID 2326; also: actives are rising curves; nearly all actives have a fitted effect of over 50% in size
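Read-out: OD600 growth recovery of NS1-expressing budding yeast. Cells grown overnight at 30C in -URA glucose medium, washed, resuspended and diluted 1:100 in 2% galactose assay medium, pH 6.0. Same strain lacking NS1 served as positive control.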
RE007 growth inh – less growth of the S. pombe RE007 Vpr strain; S. pombe RE007 Vpr strain, BacTiter-Glo ATP luminescence, 24 h; control for the full effect not named in the record; Potency, µM (titrated, usually from 92.2 µM), without a hit: at the top dose activity change, negative = less growth; 0.21% of 360,000 active; active = well fitted falling curve with a large enough effect; inconclusive = small, poorly fitted or top-dose-only effect; inactive = no such curve, though single readings can be large or run the other way;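 also: % is scaled to controls: 0 for no effect and ±100 for the full control effect; nearly all actives have a fitted effect of over 50% in size; the assay follows cell death caused by Vpr and the record does not say whether a fall means rescue or toxicity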
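Fission yeast RE007 carrying one integrated HIV-1 vpr copy, seeded at OD 0.01 in PMG+AL medium with 23 nL pinned compound. Grown 24 h at 30 degrees; viability read by BacTiter-Glo luminescence after 5 min.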
MARV entry inh – Marburg virus entry inhibition; Marburg virus pseudotyped entry inhibition, cell reporter; control for the full effect not named in the record; about a third of the inactives were read at about 46 µM; Potency, µM (top dose mostly 37.8 µM), for inactives: at the top dose activity change, negative = inhibition, actives largely listed as inhibitors; 1.8% of 300,000 active; AID 540276; active = well fitted inhibition curve with a large enough effect; inconclusive = small, poorly fitted or top-dose-only effect, or effect the other way; inactive = flat fitted curve, though single readings scatter; tested in HEK293 cells; about a fifth of its hits are not listed in these tables; also: % is scaled to controls: 0 for no effect and ±100 for the full control effect; luciferase read-out
SARS PLpro yeast – SARS-CoV PLP inhibition in yeast. Potency, µM (doses to about 32.9 µM), for the others: at the highest dose activity, positive = growth rescue. AID 485353. 0.19% of 330,000 active. S. cerevisiae expressing SARS-CoV PLpro, growth rescue; control for the full effect not named in the record; also: 0% is about no effect; nearly all actives have a fitted effect of over 55% in size; growth read by luminescence after 48 h
Cruzain inh noDet – blocks cruzain activity in detergent-free assay. 2.3% of 200,000 active. purified cruzain, Z-FR-AMC fluorescence, no detergent. Potency, µM, inactives show max response, negative = inhibition, most hits filed as inhibitors; active = well fitted curve in the direction sought with a large enough effect; inconclusive = small, poorly fitted or top-dose-only effect, or another doubt; inactive = no such curve, though single readings can be large; an effect the other way counts as inactive or inconclusive;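 also: plate controls were enzyme without inhibitor for no effect and buffer without enzyme for full effect; nearly all actives have a fitted effect of over 40% in size; top concentration of the series not given in the record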
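Purified cruzain at 1.5 nM, pre-incubated 15 min with compound at room temperature in 100 mM sodium acetate pH 5.5, 5 mM DTT, 0.00005% Triton X-100. Reaction started with 2 uM Z-FR-AMC; AMC fluorescence increase over 60 s gives rate.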
Starred values were filed as active, the others as inactive; ? = inconclusive; . = not tested or not shown; & = joins results of further samples; [ ] = another dose, or the depositor's remark. Unless noted, calls follow the shape of the dose curve; as a rule, active means well fitted rising curve with a large enough effect; inconclusive means small, poorly fitted or top-dose-only effect; inactive means no such curve, though single readings can be large or run the other way. Potency is read from the fitted curve at half-maximal effect.

SMILES	LASV entry inh	StopGo reporter	Cruzain Triton	NS1 inh	RE007 growth inh	MARV entry inh	SARS PLpro yeast	Cruzain inh noDet
CC1CC(C)CN(CCCNC(=O)c2ccc3c(SCC(=O)O)c4c(nc3c2)CCC4)C1 (stereo not given)	.	-10%	.	3%	5%	.	0%	.
CN(C)CCNC(=O)Nc1cccc(Cl)c1Cl	8%	-4%	-6.3%	-5%	7%	3%	0%	-5%
Cc1ccc(S(=O)(=O)N(C)C)cc1NC(=S)N(CCC#N)Cc1cccnc1	17%[46.1 µM]	?	.	.	-7%	2%[46.1 µM]	-4%	.
CN1C(=O)C(=CN2CCN(C(=O)c3ccco3)CC2)C(=O)N(C)C1=S	-12%	0%	-0.5%	-6%	-9%	-10%	15%	11%
O=C(Nc1cc(C(F)(F)F)ccc1Cl)C1CCN(c2nnc(-n3cccc3)s2)CC1	-5%	-17%	-2.1%	-1%	-8%	-8%&-8%	-6%	-15%
CC(C)c1ccc(Nc2c(-c3ccccn3)nc3ccccn23)cc1	?	?	2.6%	.	.	?	.	13%
CCOc1ccccc1C1C(C(=O)Nc2ccc(OC)cc2)=C(C)Nc2nc(CCCO)nn21 (stereo not given)	.	-11%	-4.5%	0%	-8%	.	6%	4%
COc1ccc(Cl)cc1C(=O)N(Cc1nc(-c2cccc(C)c2)no1)C(C)C	.	-30%	-1.2%	-82%	1%	.	-3%	28%
COCCN(CCOC)Cc1cc(=O)oc2cc3c(cc12)CCC3	-7%	16%	0.1%	-18%	-3%	4%	-3%	13%
COc1ccc(C)cc1-n1nc2ccccc2n1	.	10%	.	-6%	-15%	.	-1%	.
COC(=O)c1cc(S(=O)(=O)NCc2ccccc2)cn1C	.	55%[activator]	.	13%	-1%	.	9%	.
CCOc1ccc(NS(=O)(=O)c2ccc3c(c2)CCN3C(C)=O)cc1	?	5%&-27%	4.7%	0%	3%	22%	-1%	-11%
CCOC(=O)c1c(C)[nH]c(C)c1S(=O)(=O)NCC1CCN(Cc2ccccc2OC)CC1	.	12%	.	2%	4%	.	-1%	.
CCNC(=O)/N=C1/NC(=O)C(C(C)C)O1 (stereo not given)	9%	-13%	3.9%	4%	-9%	2%	2%	-2%
O=C(CCSCc1ccccc1Cl)NCc1ccco1	-1%	-16%	.	.	2%	13%	0%	.
COC(CNC(=O)CSCc1nc(-c2ccc(SC)cc2)oc1C)OC	-15%[46.1 µM]	7%	.	.	9%	?	2%	.
Cc1ccc(NC(=O)C(=O)c2c[nH]c3ccccc23)cc1	.	18%	.	-8%	?	.	-7%	.
CSc1ccc(/C=N/NC(=O)CN2CCN(Cc3ccc(Cl)cc3)CC2)cc1	-14%	?	-12%	9%	-16%	-19%	-14%	-6%
Cc1ccc([N+](=O)[O-])cc1S(=O)(=O)NCc1cccnc1	7%	8%	-2.2%	9%	-14%	8%	1%	11%
[O-][n+]1ccc(C(O)c2ccccc2)cc1 (stereo not given)	.	-9%	.	3%	-7%	.	1%	.
COC(=O)c1sc2cccc(F)c2c1S(=O)(=O)NCc1ccccc1Cl	?	71%[activator]	-7.0%	.	.	.	.	-4%
Cc1occc1-c1nnc(SCC(=O)NCCc2ccccc2)o1	1%[46.1 µM]	2%	.	0%	11%	2%[46.1 µM]	-1%	.
O=C(O)c1cccc(NC(=O)C2CC(=O)N(Cc3ccccc3)C2)c1 (stereo not given)	8%	6%	0.3%	-1%	16%	4%	0%	2%
NS(=O)(=O)c1cc(C(=O)OCC(=O)N2CCOCC2)ccc1Cl	-2%[46.1 µM]	-8%	.	12%	0%	?	1%	.
O=C(CCCSc1ccccc1)Nc1nc(-c2ccccn2)cs1	?	-6%	-6.1%	-80%	?	?	-11%	3%
CCc1ccc(NC(=O)N(CCN(C)C)C(C)c2cccnc2)cc1 (stereo not given)	.	2%	-2.1%	15%	-1%	.	6%	-2%
Cc1cc(C)c(C)c(C(=O)C2OC(=O)C(C)(C)C(=O)C2(C)C)c1C (stereo not given)	0%	-25%	-4.3%	1%	0%	-24%	6%	-1%
OCCN(Cc1ccccc1)Cc1cccc(F)c1	-5%	-8%	-1.0%	-3%	4%	-29%	3%	-6%
O=C(NCCc1ccc(Cl)cc1)c1ccc(CS(=O)Cc2cccc(Cl)c2)o1 (stereo not given)	-8%[46.1 µM]	?	-9.7%	.	.	.	.	?
O=C1C2CCCCN2C(=O)N1CCCCN1CCN(c2cccc(Br)c2)CC1 (stereo not given)	.	-12%	.	-1%	-13%	.	-6%	.

Looked up above.
MARV entry inh with `Cc1ccc([N+](=O)[O-])cc1S(=O)(=O)NCc1cccnc1` → 8%
RE007 growth inh with `NS(=O)(=O)c1cc(C(=O)OCC(=O)N2CCOCC2)ccc1Cl` → 0%
StopGo reporter with `[O-][n+]1ccc(C(O)c2ccccc2)cc1` (stereo not given) → -9%

The list goes on.
SMILES	LASV entry inh	StopGo reporter	Cruzain Triton	NS1 inh	RE007 growth inh	MARV entry inh	SARS PLpro yeast	Cruzain inh noDet
COC(=O)c1ccc(CSc2nc3ccc(S(N)(=O)=O)cc3[nH]2)cc1	0%	-11%	.	7%	19%	14%[46.1 µM]	6%	.
N#Cc1ccc(COC(=O)c2cnc(Cl)c(Cl)c2)cc1	-20%	?	.	-1%	8%	14%[46.1 µM]	10%	.
Cc1nc2nc(Cc3ccccc3)nn2c(C)c1Cl	-10%	19%	4.4%	-6%	19%	-5%	-4%	-4%
N#CCCn1cnc2c(=S)nc[nH]c21	-2%	.	-1.2%	-3%	3%	4%&4%	0%	3%
O=C(COC(=O)c1cnccn1)Nc1ccccc1-c1ccccc1	6%	0%	.	.	-8%	12%	-4%	.
O=S(=O)(c1ccc(Cl)cc1)N1CCCN(c2ccc(C(F)(F)F)cn2)CC1	-1%	-15%	.	-3%	1%	-27%	-3%	.
Cc1cc(C)cc(C(=O)NC(CC(N)=O)c2ccc(N3CCC(Cc4ccccc4)CC3)c([N+](=O)[O-])c2)c1 (stereo not given)	.	-17%	.	?	-5%	.	-4%	.
CC(C)Oc1ccc(CCc2n[nH]c(=S)n2Cc2ccccc2)cc1	?	.	-7.3%	17%	3%	?	29%	-3%
Cc1cccn2c(CNCCSc3nccn3C)c(C(=O)N3CCCCC3)nc12	.	-2%	.	2%	-5%	.	0%	.
N#Cc1c(-c2cccnc2)cc(-c2ccccc2)nc1N	.	-23%	.	4%	-2%	.	-1%	.
COc1ccc(C(=O)Nc2ccc3c(c2)nc(CCNC(=O)c2ccco2)n3C)cc1	18%[46.1 µM]	4%	.	10%	1%	?	-4%	.
O=C(Nc1ccccc1)N1CCN(c2ncccn2)CC1	-14%	12%	7.6%	-3%	-5%	10%	-4%	1%
NC(=O)C1=C[C@H](c2ccc(C(F)(F)F)cc2)C[C@H](OCCCCO)O1	.	-16%	.	-2%	-14%	.	-1%	.
Cc1ccc(N(C)C(=O)CC(C)S(=O)(=O)c2ccc3c(c2)NC(=O)CO3)cc1 (stereo not given)	0%&4%[46.1 µM]	-14%&-11%	.	-1%	3%	7%&7%[46.1 µM]	0%	.
Cc1c(NC2(c3nnnn3-c3ccc(Br)cc3)CCCCC2)c(=O)n(-c2ccccc2)n1C	0%	26%	-1.3%	-10%	12%	-10%	-3%	-2%
CCCCCn1c(=O)c2c(nc3n2CCN3c2ccc(Br)cc2)n(C)c1=O	1%[46.1 µM]	-17%	-2.7%	.	.	.	.	-6%
O=C(C1CCCN(c2ncccn2)C1)N1CCc2ccccc21 (stereo not given)	0%	-19%	-2.6%	-8%	-9%	15%	-2%	8%
Cc1cn(C)c(CC(=O)NCc2ccc(Cl)cc2)c1C(=O)O	18%[46.1 µM]	-17%	1.8%	.	.	.	.	9%
O=C(Nc1cccc([N+](=O)[O-])c1)Nc1ccc(Cl)cn1	-16%	20%	.	.	-1%	?	1%	.
CCc1[nH]nc(C(=O)N2CCCC(Nc3ccc(C(C)C)cc3)C2)c1C (stereo not given)	?	-22%	.	2%	1%	-14%[46.1 µM]	?	.
NS(=O)(=O)c1ccc(CNC(=O)C2(c3ccc(Cl)cc3)CC2)cc1	14%	-19%	.	.	14%	5%	0%	.
CCCN(CCC)CCCNC(=O)c1ccc2c(Cl)c3c(nc2c1)CCC3	-2%	-8%	.	4%	-11%	?	-1%	.
Cc1ccc(-c2ccc(/C=C(\C#N)C(=O)Nc3cc(C)nn3-c3ccccc3)o2)cc1	.	.	0.9%	-1%	.	3%	-6%	-2%
COc1ccc(CC(=O)N2CCN=C2SC)cc1	.	-21%	-0.7%	-6%	7%	.	-3%	-10%
Cc1cccc(NC(=O)c2sc3nc4n(c(=O)c3c2C)N=C(c2ccc(F)cc2)CS4)c1C	7%[46.1 µM]	3%	0.3%	.	.	.	.	6%
O=c1[nH]c(=O)n(-c2ccc(Br)cc2)c(O)c1C=NC(CO)(CO)CO	-12%[46.1 µM]	-7%	.	-12%	4%	?	2%	.
COCCN1CC(=O)N(c2cccc(C)c2C)C(c2ccc(Cl)cc2)C1=O (stereo not given)	-4%	-17%	2.5%	-1%	2%	?	0%	20%
O=C(Nc1cccc2[nH]ncc12)c1ccc(F)cc1	4%	62%[activator]	0.0%	6%	-11%	?	-8%	2%

In a second layout: four of the compounds above.
Below each compound – LASV entry inh, StopGo reporter, Cruzain Triton, NS1 inh, RE007 growth inh, MARV entry inh, SARS PLpro yeast, Cruzain inh noDet
CCc1[nH]nc(C(=O)N2CCCC(Nc3ccc(C(C)C)cc3)C2)c1C (stereo not given)
→ ?, -22%, ., 2%, 1%, -14%[46.1 µM], ?, .
COc1ccc(CC(=O)N2CCN=C2SC)cc1
→ ., -21%, -0.7%, -6%, 7%, ., -3%, -10%
O=C(Nc1cccc([N+](=O)[O-])c1)Nc1ccc(Cl)cn1
→ -16%, 20%, ., ., -1%, ?, 1%, .
COCCN1CC(=O)N(c2cccc(C)c2C)C(c2ccc(Cl)cc2)C1=O (stereo not given)
→ -4%, -17%, 2.5%, -1%, 2%, ?, 0%, 20%
